Bioassay records as filed in PubChem BioAssay.
Mtb H37Rv – M. tuberculosis H37Rv growth inhibitors, H37Rv strain (AID 1626) | inhibition, % at 10 µM, or IC50 in µM where a hit was titrated | 0.95% of 220,000 active | M. tuberculosis H37Rv growth inhibition; higher % means a stronger effect;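 active = confirmed in a dose series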;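 note: bacteria incubated seven days before Alamar blue readout; 0% = bacteria only wells and 100% = bacteria with antibiotic wells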
Arbovirus inh – antivirals against arbovirus infection; arbovirus infection cell-based antiviral screen; inhibition, % at 10 µM; 0.37% of 200,000 active;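 active = inhibition from about 30%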;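 note: bluetongue infection of BSR cells; cell survival read as ATP light after 72 h; 0% = infected wells without compound and 100% = uninfected wells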
YopH inh – inhibitors of Yersinia enterocolitica YopH tyrosine phosphatase. fluorescence Ex485/Em525. inhibition, %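 (about 10 µM by stock and volumes)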. 0.16% of 140,000 active;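 active = inhibition of 50% or more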;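 note: controls were vehicle for no effect and minimum signal wells for full effect; inactives centre near -20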
Mtb bLac sens – beta-lactam sensitization of Mtb H37Rv. M. tuberculosis H37Rv growth with meropenem, percent inhibition; hits of this screen are not shown here. 0.27% of 330,000 active. inhibition, % at 25 µM;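 active = about 74% or more and at least 40 points above the plate without the antibiotic, then above 30% in a dose series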;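 note: growth measured after seven days incubation then overnight dye step; 0% = bacteria only wells and 100% = bacteria with antibiotic; twin plates without the antibiotic show which effects depend on it; some results filed as inactive read as strong as hits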
RecA intein inh – Mtb RecA intein splicing inhibition. P9WHJ3. cell-free RecA intein splicing, fluorescence. inhibition, %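 (about 9 µM by stock and volumes)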. 0.75% of 290,000 active; in the data active = inhibition above about 30%;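 note: 0% = vehicle wells and 100% = reference inhibitor control wells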
Target sequence (P9WHJ3 whole entry, looked up): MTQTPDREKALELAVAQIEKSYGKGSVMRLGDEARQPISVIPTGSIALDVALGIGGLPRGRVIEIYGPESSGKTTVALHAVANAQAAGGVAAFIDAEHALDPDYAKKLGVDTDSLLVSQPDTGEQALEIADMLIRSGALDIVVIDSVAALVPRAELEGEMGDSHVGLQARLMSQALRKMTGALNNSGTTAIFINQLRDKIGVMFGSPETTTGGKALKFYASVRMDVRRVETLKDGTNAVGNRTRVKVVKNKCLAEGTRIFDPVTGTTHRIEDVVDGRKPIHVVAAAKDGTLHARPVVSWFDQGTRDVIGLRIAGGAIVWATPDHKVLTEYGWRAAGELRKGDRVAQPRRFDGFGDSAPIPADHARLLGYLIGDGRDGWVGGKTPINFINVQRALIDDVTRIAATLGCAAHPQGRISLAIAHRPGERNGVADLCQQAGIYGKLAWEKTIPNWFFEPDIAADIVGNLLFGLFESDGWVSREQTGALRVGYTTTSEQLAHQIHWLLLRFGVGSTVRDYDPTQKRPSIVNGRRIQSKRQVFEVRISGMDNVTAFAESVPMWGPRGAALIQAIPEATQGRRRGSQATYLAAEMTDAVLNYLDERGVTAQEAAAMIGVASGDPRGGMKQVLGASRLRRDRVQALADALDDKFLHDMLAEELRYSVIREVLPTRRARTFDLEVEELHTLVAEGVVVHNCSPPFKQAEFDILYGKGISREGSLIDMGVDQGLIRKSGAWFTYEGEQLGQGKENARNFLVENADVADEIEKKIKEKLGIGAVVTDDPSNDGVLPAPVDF
Arbovirus inh repeat – recorded beside Arbovirus inh, whose call it bears; inhibition, %; measured here: 10K subset replicate screen; many hits read low in the repeat;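 first of two repeat runs on a subset; 0% = infected and 100% = uninfected wells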
* marks the source's active call; other numbers are inactive results; . = not tested or not shown. Not all compounds are listed (hit frequency here may not be typical).

The first two records as a preview:
SMILES | Mtb H37Rv | Arbovirus inh | YopH inh | Mtb bLac sens | RecA intein inh | others
Cc1cc(C)c2nc(N(CCCN(C)C)C(=O)c3ccc(S(=O)(=O)N4CC(C)OC(C)C4)cc3)sc2c1 (centres undefined) | . | . | . | -8 | 0.9
CCCCNC(=O)N(C)c1nc2ccccc2s1 | 2% | 1 | . | 7 | 0.2

The whole of this part, previewed entries included:
SMILES | Mtb H37Rv | Arbovirus inh | YopH inh | Mtb bLac sens | RecA intein inh | others
Cc1cc(C)c2nc(N(CCCN(C)C)C(=O)c3ccc(S(=O)(=O)N4CC(C)OC(C)C4)cc3)sc2c1 (centres undefined) | . | . | . | -8 | 0.9
CCCCNC(=O)N(C)c1nc2ccccc2s1 | 2% | 1 | . | 7 | 0.2
CC(C)CCNC(=O)C(C)N(Cc1ccc(F)cc1)C(=O)c1ccc(CN2CCCCC2)o1 (centres undefined) | -4% | 7 | 11 | -3 | -3.1
O=C(Oc1coc(CSc2ncccn2)cc1=O)c1ccco1 | -1% | -3 | . | 1 | -0.9
CCOCCn1c(=O)c2c(nc3n2CC(C)CN3CCc2ccccc2)n(C)c1=O (centres undefined) | . | . | . | 3 | 1.1
CC(C)=CCCC(C)CN1CCC(N2CCC(C(=O)N3CCCC3)CC2)CC1 (centres undefined) | 6% | -23 | . | -11 | -0.1
CCOC(=O)N1CCN(CC(=O)Nc2c(C(=O)OC)[nH]c3cc(C)ccc23)CC1 | -1% | -13 | -11 | -1 | -1.4
c1ccc(-c2cc3c(N4CCN(c5ccccc5)CC4)ncnc3s2)cc1 | 11µM* | 8 | . | 86 | -3.1
Cc1ccc(C)c(NC(=S)NCCc2cnc[nH]2)c1 | -5% | . | . | -5 | 0.5
CN(CCCNC(=O)C1CCC(CNS(=O)(=O)c2ccccc2)CC1)Cc1ccccc1 (centres undefined) | . | . | . | -7 | 4.4
Cc1ccccc1C(=O)NC(=S)Nc1sc2c(c1C#N)CCC(C)C2 (centres undefined) | 17% | 15 | -25 | 75 | 1.2
COc1ccc(CC(=O)OC(C)CN2CCCC2)cc1 (centres undefined) | -2% | 4 | -25 | -7 | -0.7
N#Cc1cc(NC(=O)c2ccc(F)cc2)c(=O)n2c1[nH]c1ccccc12 | -8% | 7 | . | -6 | -2.8
Cc1ccc(S(=O)(=O)N2CCCC2C(=O)OCc2nc3sc(C)c(C)c3c(=O)[nH]2)cc1 (centres undefined) | -1% | 2 | -34 | -4 | 5.1
COc1ccc(N2C(=O)c3ccccc3NC23C(=O)N(C)c2ccccc23)cc1 (centres undefined) | -1% | 0 | 0 | -3 | -0.5
CSc1ccc(S(=O)(=O)NC2CCCCC2)cc1 | -4% | -8 | -20 | 50 | -1.8
Cc1cc(C)n2nc(S(=O)(=O)N(C)Cc3ccccc3)nc2n1 | -7% | -1 | -28 | -6 | -1.2
COC(=O)c1c(C)oc(C)c1S(=O)(=O)NCc1ccc(Cl)cc1 | 2% | . | . | 1 | 0.0
O=C(Cn1cnc2ccccc21)c1ccccc1 | . | . | . | 1 | -1.5
C/C=C/c1ccc(OCCOc2ccc(C=O)cc2OC)c(OC)c1 | 3% | 10 | 4 | 17 | 1.8
CCN(CC)CCC(c1ccc2c(c1)OCO2)c1c(OC)cc(OC)c2c(-c3ccccc3)cc(=O)oc12 (centres undefined) | 13µM* | . | . | 1 | 25
O=C(CCCC1=NS(=O)(=O)c2ccccc2N1)OCc1ccc(Cl)cc1 | . | . | . | -6 | 0.3
O=C(O)CC(=O)Nc1ccccc1C(=O)O | -5% | 4 | -28 | -1 | 1.5
COc1ccc(Nc2nc(C)cc(C)n2)cc1Cl | . | . | . | -1 | 0.1
COc1ccc2c(CN(C)c3ccccc3)cc(=O)oc2c1 | -3% | 5 | -28 | . | 0.2

The final five compounds of the section above lead into the next.
SMILES | Mtb H37Rv | Arbovirus inh | YopH inh | Mtb bLac sens | RecA intein inh | others
CCN(CC)CCC(c1ccc2c(c1)OCO2)c1c(OC)cc(OC)c2c(-c3ccccc3)cc(=O)oc12 (centres undefined) | 13µM* | . | . | 1 | 25
O=C(CCCC1=NS(=O)(=O)c2ccccc2N1)OCc1ccc(Cl)cc1 | . | . | . | -6 | 0.3
O=C(O)CC(=O)Nc1ccccc1C(=O)O | -5% | 4 | -28 | -1 | 1.5
COc1ccc(Nc2nc(C)cc(C)n2)cc1Cl | . | . | . | -1 | 0.1
COc1ccc2c(CN(C)c3ccccc3)cc(=O)oc2c1 | -3% | 5 | -28 | . | 0.2
CC(C)=CCN1CCN(Cc2cccn2-c2ncccn2)CC1CCO (centres undefined) | 1% | 5 | . | -8 | -1.9
O=C(NN1C(=O)c2ccc(-c3ccc4c(c3)C(=O)N(NC(=O)c3cccnc3)C4=O)cc2C1=O)c1cccnc1 | 0% | 16 | . | -6 | 1.7
O=C(CC1CCCCC1)NCC1CCCO1 (centres undefined) | -9% | 7 | -20 | -17 | -0.9
COc1cccc(NC(=O)CN(C)C(=O)Cn2cnc3ccccc3c2=O)c1 | . | . | . | -3 | -0.7
COc1ccc(CCNCc2ccc(OCc3ccc(Cl)nc3)c(OC)c2)cc1OC | -11% | -15 | -23 | -8 | -0.7
O=C(CCc1ccccc1)N1CCN(Cc2ccc(F)cc2Cl)CC1 | . | . | . | -9 | 1.4
Cc1ccc(/C=C/C(=O)C2C(=O)c3ccccc3C2=O)cc1 | 3.4µM* | 0 | -13 | 99 | 7.8
CCC(C)(C(=O)NC1CCCC1)N(Cc1ccco1)C(=O)Cc1cccs1 (centres undefined) | -9% | 9 | -3 | -1 | 1.0
O=S1(=O)CCC(N=Cc2cc(Br)ccc2O)C1 (centres undefined) | -11% | 4 | 10 | -3 | -0.7
Cc1cc(-c2nnc3sc(C4CCCCC4)nn23)n[nH]1 | -7% | -1 | -28 | -9 | 0.9
CC(=O)Nc1ccc(N(C(=O)Cc2c[nH]c3ccccc23)C(C(=O)NC2CCCCC2)c2ccco2)cc1 (centres undefined) | 7% | -9 | -18 | -4 | 5.9
COCCSc1ccccc1C(=O)Nc1cc(C)on1 | 8% | -9 | -8 | -3 | -1.3
CCCn1nc(NC(=O)c2ccccn2)c2cc3cc(C)ccc3nc21 | 6% | 5 | -4 | 7 | -9.1
CNC(=S)NNC(=O)c1sc(-c2cc(C)on2)nc1C | 9% | . | . | 2 | 8.9
O=C(/C=C/c1ccco1)NCC(=O)N/N=C/c1ccc(Cl)cc1 | -4% | 13 | . | -6 | -2.4
CC(=O)O[C@H]1CC[C@H]2[C@@H]3CCc4cc(O)ccc4[C@H]3CC[C@]12C | 6% | -9 | -32 | 9 | 1.3
C/C(=N\NC(=O)c1c(Cl)c(C)nn1C)c1ccc(NC(=O)C2CCC2)cc1 | . | . | . | -3 | -3.8
CN1CCN(NC(=S)Nc2ccc(Oc3ccccc3)cc2)CC1 | 4% | 0 | . | -4 | -2.3
CN(C)c1ccc(NC(=O)CCn2c(=S)oc3ccccc32)cc1 | -9% | 1 | . | 7 | 0.2
N#CCCN(C(=O)COC(=O)CNC(=O)c1ccc(-c2ccccc2)cc1)c1ccc(F)cc1 | . | . | . | 96 | 15
C/C(=N\NC(=O)c1c[nH]c2ccccc12)c1ccc2c(c1)OCO2 | 6% | -9 | . | 7 | -3.0
NC1=NC(=O)C(CC(=O)NCc2ccccc2)S1 (centres undefined) | 8% | 13 | . | -2 | -0.8
Cc1ccc2c(C)c(C(=O)N3CCN(Cc4ccccn4)CC3)oc2c1C | . | . | . | 16 | 3.4
Cc1ccc(C(=O)NN2C(=O)/C(=C/c3cccn3C)SC2=S)cc1 | 4% | -7 | -17 | . | -8.4
CC(=O)c1cccc(OCc2cc(C(=O)NCCC3=CCCCC3)no2)c1 | . | . | . | 0 | -5.3

Next part.
SMILES | Mtb H37Rv | Arbovirus inh | YopH inh | Mtb bLac sens | RecA intein inh | others
CCN(CC)CCNC(=O)c1cc([N+](=O)[O-])c(N(C)C)cc1OC | -3% | . | . | -6 | -0.9
CCN1CCN(CC(=O)Nc2nc3ccc(C)cc3s2)CC1 | . | . | . | 6 | 9.0
COc1ccc(NS(=O)(=O)c2ccc3c(c2)oc(=O)n3C)cc1Cl | . | . | . | -9 | 0.8
O=C(CSc1nnc(CN2CCCCCC2=O)n1-c1ccccn1)NCC(F)(F)F | -6% | 0 | -36 | 1 | 3.2
Cc1ccc(S(=O)(=O)NNC(=S)NC(=O)c2ccc([N+](=O)[O-])cc2)cc1 | 0% | 7 | -24 | -1 | 23
COc1ccc(N2CCN(C(=O)Cc3ncc(C(F)(F)F)cc3Cl)CC2)cc1 | -17% | -5 | -32 | 6 | 1.8
Cc1cc(NC2CCCC2)n2ncc(-c3ccccc3)c2n1 | . | . | . | 12 | -2.0
CCOC(=O)c1c(NC(=O)c2cc(-c3cccc(O)c3)on2)sc(C(C)=O)c1C | . | 2 | -14 | -1 | 1.3
Cc1ccc(C(=O)Nc2cccnc2)cc1S(=O)(=O)N1CCOCC1 | -7% | 4 | -16 | -7 | 1.3
Cc1nnc(NC(=O)CSc2nnc(Cc3cccn3C)n2-c2ccccc2)s1 | -1% | 8 | -16 | -1 | -0.5 | Arbovirus inh repeat=2
Cc1ccc(NC(=O)CSc2nnc(-c3ccco3)o2)c(C)c1 | -1% | 0 | . | 3 | 2.4
CCOc1ccc(CNC(=O)C2CCCN(c3nnc(C)c4c(C)n(-c5ccccc5)nc34)C2)cc1 (centres undefined) | . | . | . | 11 | -3.0
Cc1sc2ncnc(N[C@@H](CCC(=O)O)C(=O)O)c2c1C | -10% | 4 | -31 | -3 | 0.5
O=C(O)c1cnn2c1C(=O)N(Cc1cccs1)CC2 | -8% | 3 | . | 5 | 0.2
CCCc1nc2c(=O)[nH]c3ccccc3c2o1 | -10% | 2 | -18 | -3 | -2.0
CC(=O)NC1CC2CCCC(C1)N2 (centres undefined) | -3% | 0 | -58 | 2 | -0.2
Cc1ccc(NC(=O)CCC(=O)NNC(=S)Nc2ccc(F)cc2)c(C)c1 | . | . | . | -2 | -0.8
COc1cc(OC)cc(C(=O)N/N=C/c2ccc(OC)c(COc3ccc(F)cc3)c2)c1 | . | -13 | -48 | 27 | 4.4
Cc1ccc(NC(=O)CNc2cccc(C)c2C)c(C)c1 | . | -7 | -25 | 14 | 1.7
CC(OC(=O)CCN=C1NS(=O)(=O)c2ccccc21)C(=O)Nc1ccc(F)cc1 (centres undefined) | . | . | . | -2 | -0.6
N#C/C(=C\c1ccncc1)c1nc2ccccc2[nH]1 | 1% | -3 | . | . | -3.3
COc1ccc2c(Cl)c(C(=O)NCCc3ccc(S(N)(=O)=O)cc3)sc2c1 | . | . | . | -3 | -3.0
CCOc1ccccc1NC(=O)C1CCCN(C(=O)Nc2ccccc2)C1 (centres undefined) | 2% | -2 | -15 | 1 | 3.8
CCc1ccccc1NC(=S)/N=C(\N)Nc1nc(C)c2cc(C)ccc2n1 | 6% | 0 | -7 | 7 | 1.4
CCOC(=O)c1c(C)[nH]c(NC(=O)Nc2c(C)n(C)n(-c3ccccc3)c2=O)c1C | -2% | -5 | 16 | -2 | -3.6

Other results:
SMILES | Mtb H37Rv | Arbovirus inh | YopH inh | Mtb bLac sens | RecA intein inh | others
COc1ccc(-c2noc(N3CCC(C(=O)Nc4ccc(OC)cc4OC)CC3)n2)cc1 | . | . | . | -5 | -2.2
O=C(CCCCCNC(=O)N1CCn2c1nc1ccccc12)NCCc1ccccc1 | . | . | . | -5 | -1.5
CCOC(=O)c1nn(-c2ccccc2F)c2nc(Nc3ccccc3)cc(=O)n12 | 1% | 2 | -28 | 56 | -0.5
Cc1ccc(N2CC(C(=O)OCC(=O)C(C)(C)C)CC2=O)cc1 (centres undefined) | -7% | -4 | -36 | 6 | -1.3 | Arbovirus inh repeat=6
Cc1cccc(NC(=O)C2CCCN2C(=O)NC2CCCCC2)c1 (centres undefined) | 1% | -3 | . | 6 | 9.0
COCCN1C(=S)NC(c2cccc(C(F)(F)F)c2)C(C(=O)N2CCOCC2)=C1C (centres undefined) | 7% | 1 | . | -7 | -0.6
COc1ccc(C(=O)COc2ccccc2C#N)cc1 | 16% | . | . | 4 | -0.7
Cc1cccc(NC(=O)/C(=C/c2cccc([N+](=O)[O-])c2)NC(=O)c2cccs2)c1 | 6% | -5 | -6 | -6 | 0.3
CCc1ccc(CNC(=O)CC2C(=O)NCCN2Cc2ccccc2F)nc1 (centres undefined) | . | . | . | 3 | -0.6
O=C(O)c1cccc(-n2c(/C=C/c3cccc([N+](=O)[O-])c3)nc3ccccc3c2=O)c1 | . | . | . | -4 | 2.4
CCNC(=S)N1CCC(C(O)(c2ccccc2)c2ccccc2)CC1 | -2% | 2 | . | 11 | -1.1
CC(=O)c1cc2c(cc1NC(=O)CCn1cccc1)OCO2 | -6% | -2 | -36 | -3 | -3.2

Two compounds drawn at random from those above:
SMILES | Mtb H37Rv | Arbovirus inh | YopH inh | Mtb bLac sens | RecA intein inh | others
COCCN1C(=S)NC(c2cccc(C(F)(F)F)c2)C(C(=O)N2CCOCC2)=C1C (centres undefined) | 7% | 1 | . | -7 | -0.6
COc1ccc(C(=O)COc2ccccc2C#N)cc1 | 16% | . | . | 4 | -0.7
